Source: PubChem BioAssay (Johns Hopkins Ion Channel Center)
KCNQ2 enhance: enhances the rat KCNQ2 potassium channel; O88943; CHO-K1 KCNQ2, FluxOR thallium flux fluorescence; hits give high values; B-score at 10 µM; 0.54% of 310,000 active;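 active means fluorescence ratio B-score at least 3 SD of library B-scores, with initial fluorescence B-score within 3 SD, cut at about 5.3 in these data; same plate scores as AID 2156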;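 further: B-score of peak minus minimum over baseline fluorescence ratio after K+ and Tl+ stimulus; positive B-score means potentiation of KCNQ2 with more thallium influx and brighter signal; only the inactives scoring about 0 or higher are listed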
Target sequence (O88943 whole entry, looked up): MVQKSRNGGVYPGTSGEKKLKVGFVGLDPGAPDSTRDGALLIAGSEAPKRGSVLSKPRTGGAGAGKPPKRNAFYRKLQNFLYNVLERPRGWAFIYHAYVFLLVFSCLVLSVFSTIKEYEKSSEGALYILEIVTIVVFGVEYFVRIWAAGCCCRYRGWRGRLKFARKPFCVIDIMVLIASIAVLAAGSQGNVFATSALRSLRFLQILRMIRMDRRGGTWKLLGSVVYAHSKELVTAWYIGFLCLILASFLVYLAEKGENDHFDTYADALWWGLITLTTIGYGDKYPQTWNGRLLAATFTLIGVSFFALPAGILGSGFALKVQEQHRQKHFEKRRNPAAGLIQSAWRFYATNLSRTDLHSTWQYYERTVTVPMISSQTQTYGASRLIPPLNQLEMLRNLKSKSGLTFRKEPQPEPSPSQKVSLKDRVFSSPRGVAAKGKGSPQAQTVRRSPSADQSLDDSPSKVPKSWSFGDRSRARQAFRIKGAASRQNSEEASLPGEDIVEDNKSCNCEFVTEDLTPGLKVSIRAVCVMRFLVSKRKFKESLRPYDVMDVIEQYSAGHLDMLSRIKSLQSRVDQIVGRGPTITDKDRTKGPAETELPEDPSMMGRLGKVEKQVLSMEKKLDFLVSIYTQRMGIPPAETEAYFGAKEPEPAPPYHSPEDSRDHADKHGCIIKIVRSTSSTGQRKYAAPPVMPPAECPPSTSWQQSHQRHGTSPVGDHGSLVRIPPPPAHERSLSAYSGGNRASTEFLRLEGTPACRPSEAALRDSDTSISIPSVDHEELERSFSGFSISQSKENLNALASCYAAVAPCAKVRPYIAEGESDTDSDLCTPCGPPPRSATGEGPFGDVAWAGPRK
KCNQ2 enhance baseline: recorded beside KCNQ2 enhance, whose call it bears; B-score; compound at 10 µM; measured here: initial fluorescence intensity artifact check;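 brightness before thallium and not channel activity; 0 = typical well and far values either way flag optical interference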
* marks the source's active call; other numbers are inactive results. The list is partial (hit frequency here may not be typical).

SMILES	KCNQ2 enhance	KCNQ2 enhance baseline
O=C(COC(=O)c1cccnc1Nc1cccc(C(F)(F)F)c1)NC1CCS(=O)(=O)C1 (stereo unspecified)	0.88	-0.04
O=c1c2ccccc2oc2nc(-c3ccco3)n(Cc3ccccc3)c(=O)c12	0.07	1.91
COc1cc(C(C)=O)ccc1OCC(O)CN1CCN(c2ccc(C)cc2C)CC1 (stereo unspecified)	0.24	-1.31
COc1ccc(C2C=C(C)Nc3nc(SC)nn32)cc1 (stereo unspecified)	0.59	0.68
CN1CCC(=NNC(=O)CSCc2ccccc2)CC1	0.06	0.38
O=C(CC1CCCC1)Nc1nnc(C2CC2)s1	0.6	0.09
Cc1ccc(S(=O)(=O)n2[nH]c(=O)cc2N)cc1	0.81	1.6
CN(C)C1(CNC(=O)CC(NC(=O)c2ccccc2Cl)c2ccccc2)CCCCC1 (stereo unspecified)	0.06	0.33
COc1ccccc1C(=O)O/N=C(\N)c1ccccn1	0.82	-1.75
Cc1ccc(Cn2nc(C)c(NC(=O)c3cc(-c4ccco4)on3)c2C)cc1	0.48	2.29
CC(C)CN(C(=O)c1ccc2c(c1)OCO2)C1CCS(=O)(=O)C1 (stereo unspecified)	0.81	1.37
CC(C)C(OC(=O)c1ccco1)C(=O)NCc1cccs1 (stereo unspecified)	0.71	-0.98
O=c1[nH]c2ccc(NCc3ccc(OCc4ccccc4Cl)cc3)cc2[nH]1	0.36	0.01
COc1ccc2nc(NC(=O)CNS(=O)(=O)c3cccs3)sc2c1	0.35	0.18
CCOc1ccc(/C=N/NC(=O)C(OC)c2ccccc2)cc1 (stereo unspecified)	1.5	-0.16
COc1ccccc1CCc1nnc(CCC(=O)NC(C)Cn2nc(C)cc2C)o1 (stereo unspecified)	0.79	2.19
C/C(=N\NC(=O)c1c(C)nc2ccccn12)c1ccc(C(C)(C)C)cc1	1.23	-2.38
O=C(COc1ccc(Cl)cc1)N1CCN(C(=O)c2cccc(F)c2)CC1	0.78	-0.49
Cc1cccc(/C(N)=N/OC(=O)c2cccnc2)c1	0.28	0.04
O=C(NCC1CCCO1)C1CCC(=O)N1CCc1ccccc1 (stereo unspecified)	0.91	-0.27

In the list so far, 3 have a furan ring, fused or not:
SMILES	KCNQ2 enhance	KCNQ2 enhance baseline
O=c1c2ccccc2oc2nc(-c3ccco3)n(Cc3ccccc3)c(=O)c12	0.07	1.91
Cc1ccc(Cn2nc(C)c(NC(=O)c3cc(-c4ccco4)on3)c2C)cc1	0.48	2.29
CC(C)C(OC(=O)c1ccco1)C(=O)NCc1cccs1 (stereo unspecified)	0.71	-0.98

The results go on:
SMILES	KCNQ2 enhance	KCNQ2 enhance baseline
COCOc1ccc(-c2cc(=O)c3c(OCOC)cc(OCOC)cc3o2)cc1	0.52	-1.53
N/C(=N\OS(=O)(=O)c1ccccc1)c1ccncc1	2.2	-2.89
N#CC1=C(N)SC2(CCCCC2)SC1c1ccccc1 (stereo unspecified)	0.88	0.08
COC(=O)c1cc(S(=O)(=O)N2CCOCC2)c(Cl)cc1N1CCOCC1	1.22	0.31
CCCNC(=O)c1ccc(N2CCC3(CC2)CC(c2ccccc2)=NO3)c(N)c1	0.06	-0.32
O=C(Nc1ccc([N+](=O)[O-])cc1)C1COc2ccccc2O1 (stereo unspecified)	0.04	-0.38
COc1ccc2[nH]c3c(N4CC(C)OC(C)C4)ncnc3c2c1 (stereo unspecified)	0.36	-0.56
O=C(NCc1ccc2c(c1)OCO2)C1CCC(CNc2c(N3CCCC3)c(=O)c2=O)CC1 (stereo unspecified)	0.01	1.28
CCn1c(SCC(=O)Nc2ccccc2)nc2ccccc2c1=O	1.03	-1.16
C=CCC(NCc1ccccc1)c1ccccc1 (stereo unspecified)	0.03	-2.47
Cn1cccc1C(=O)NNC(=O)c1ccccc1Br	1.57	-2.3
Cc1nnc(C)n1/N=C/c1ccc2c(c1)OCCO2	0.46	0.15
CC(C)(C)CN1CCN(Cc2cccnc2)CC1CCO (stereo unspecified)	0.87	0.55
Cc1cc(C)c2c(N)c(C(=O)c3ccc(Cl)cc3Cl)sc2n1	0.98	-0.73
O=c1cc(-c2ccccc2)cc(-c2ccccc2)n1O	6.64*	-0.6*
COc1ccc(NC(=O)C(=O)NCC(c2ccco2)N2CCc3ccccc32)cc1 (stereo unspecified)	1.65	0.63
CCC(C)(C)C1CCC2(CC1)NC(=O)N(CC(=O)Nc1cc(C(F)(F)F)ccc1N1CCOCC1)C2=O (stereo unspecified)	3.27	0.43
Cc1ccc(NC2Sc3ccccc3NC2=O)cc1Cl (stereo unspecified)	0.01	1.59
Cc1ccc(-n2nc3c(c2NC(=O)c2ccc4c(c2)OCO4)CSC3)c(C)c1	2.39	-1.15
COC(=O)[C@@]12CCCCN1[C@H](c1ccc(-c3ccc(C(C)=O)cc3)cc1)[C@H]1C(=O)N(C)C(=O)[C@H]12	1	1.47

Structural class, the entries above with a thiophene ring, fused or not.
SMILES	KCNQ2 enhance	KCNQ2 enhance baseline
CC(C)C(OC(=O)c1ccco1)C(=O)NCc1cccs1 (stereo unspecified)	0.71	-0.98
COc1ccc2nc(NC(=O)CNS(=O)(=O)c3cccs3)sc2c1	0.35	0.18
Cc1cc(C)c2c(N)c(C(=O)c3ccc(Cl)cc3Cl)sc2n1	0.98	-0.73

Continued:
SMILES	KCNQ2 enhance	KCNQ2 enhance baseline
O=C(O)c1ccccc1NSc1ccccc1[N+](=O)[O-]	0.73	1.72
CCC(C)C(NC(=O)C(N)CC(C)C)C(=O)NC(CCC(=O)OCc1ccccc1)C(N)=O (stereo unspecified)	1.03	-0.01
Cc1nnc(NCCc2ccccc2)n(N)c1=O	0.54	0.6
COc1ccccc1OC(=O)c1ccc2nsnc2c1	0.13	0.13
S=c1nc(C2CC2)n(-c2ccccc2)[nH]1	1.94	1.23
Cn1c(CN2CCCCC2)nc2cc(NC(=O)c3ccc(Cl)cc3)ccc21	0.01	-0.09
CCOC(=O)C1(Cc2cccc(F)c2)CCN(Cc2ccon2)CC1	1.62	0.14
COc1cccc(NC(=S)NNC(=O)c2c([N+](=O)[O-])c(C)nn2C)c1	4.03	0.16
Cc1c(N/C=C/C(=O)c2cccs2)c(=O)n(-c2ccccc2)n1C	0.98	-1.38
CCN(CC(=O)Nc1c(F)cccc1F)C(=O)c1ccc(Cl)c(S(=O)(=O)N2CCCC2)c1	1.93	0.49
O=C(CSc1ncnc2sc3c(c12)CCC3)Nc1ccccc1C(=O)O	0.71	0.39
CCOC(=O)c1ccc(Nc2nc(C)cc(C)n2)cc1	1.37	-0.23
Cc1ccc(C)c(N2CCN(S(=O)(=O)c3c(C)noc3C)CC2)c1	1.67	-1.32
Cc1cc2occ(CC(=O)N(C)CC(=O)Nc3cccc(F)c3)c2cc1C	1.9	0.01
CCN(CC)C(=O)Cn1cnc2ccccc2c1=O	0.02	-0.47
O=C(C1CCN(C2CC(=O)N(Cc3ccccc3)C2=O)CC1)N1CCCCCC1 (stereo unspecified)	0.05	-1.01
COc1ccc(NC(=O)CSc2nnc(Cn3cnc([N+](=O)[O-])n3)n2C)cc1	0.12	-0.65
COc1ccccc1NC(=O)CSc1n[nH]c(-c2cccnc2)n1	0.38	1.87
CC(=O)N(Cc1cc2c(C)cc(C)cc2[nH]c1=O)C1CCCCC1	0.62	-0.2
O=C(Nc1nc(-c2ccccc2)ns1)c1cccs1	0.44	-0.22

Shown with two lines to a compound: entries from further up.
Screens in order: KCNQ2 enhance	KCNQ2 enhance baseline
Cc1nnc(NCCc2ccccc2)n(N)c1=O
  0.54	0.6
COc1ccccc1OC(=O)c1ccc2nsnc2c1
  0.13	0.13
S=c1nc(C2CC2)n(-c2ccccc2)[nH]1
  1.94	1.23

(continued)
SMILES	KCNQ2 enhance	KCNQ2 enhance baseline
CCOC(=O)C1=C(C)N(CCCC(=O)O)C(=O)NC1c1ccccc1Cl (stereo unspecified)	0.38	-0.86
COc1cccc(N2C(=NC(=O)c3ccccc3)SC3CS(=O)(=O)CC32)c1 (stereo unspecified)	0.04	1.1
CC/C(=N/NC(=O)c1ccc(Br)cc1)c1ccc(OCCN2CCOCC2)cc1	0.16	-1.87
Nc1cccc(NC(=O)c2cccs2)c1	1.91	-0.48
CC1Cc2cc(/C(O)=C3\C(=O)C(=O)N(Cc4cccnc4)C3c3ccccc3F)ccc2O1 (stereo unspecified)	1.75	0.01
Cc1ccc(NC(=O)c2cc(-c3cccc(O)c3)on2)cc1C	0.86	0.57
COn1c(-c2ccccc2)nc2ncccc21	1.32	0.35
COC(=O)Cc1cc(=O)n2[nH]cnc2n1	0.55	0.15
FC(F)(F)c1cccnc1-n1cncn1	0.46	-1.17
O=C(CN1CCC(NC(=O)c2ccco2)CC1)Nc1ccccc1[N+](=O)[O-]	0.72	-0.96
Cc1nnc(SCc2nc3ccccc3s2)n1N	0.08	-0.69
Nc1c(C=C2C=CC(=O)C=C2)c(=O)nc2sc(CC(=O)N3CCCCC3)nn12	0.72	0.03
Cn1c(/C=C/c2ccc(Cl)cc2)c([N+](=O)[O-])c(=O)n(C)c1=O	0.62	1.25
CC1=NN(c2nc(-c3ccc(C)cc3)cs2)C(=O)C1N=Nc1cccc(C)c1 (stereo unspecified)	0.3	-0.01
N/C(=N\c1nc2ccccc2o1)NC(=O)c1cccc(Br)c1	0.07	0.02
COc1ccc(S(=O)(=O)N2CCOCC2)cc1NC(=O)COC(=O)c1ccc(C)s1	1.12	-1.03
CC(C)CNC(=S)NC(=O)c1csc([N+](=O)[O-])c1	1.08	0.49
CCOC(=O)C(=CNc1cccc(C)c1C)C(=O)OCC	0.71	-0.15
O=S(=O)(NCC(c1cccnc1)N1CCN(c2ccc(F)cc2)CC1)c1cc(F)ccc1F (stereo unspecified)	0.23	0
Cc1sc2ncnc(NCCCO)c2c1C	0.51	1.28

Part of the list above, in markdown:
| SMILES | KCNQ2 enhance | KCNQ2 enhance baseline |
| --- | --- | --- |
| Nc1cccc(NC(=O)c2cccs2)c1 | 1.91 | -0.48 |
| CC1Cc2cc(/C(O)=C3\C(=O)C(=O)N(Cc4cccnc4)C3c3ccccc3F)ccc2O1 (stereo unspecified) | 1.75 | 0.01 |
| Cc1ccc(NC(=O)c2cc(-c3cccc(O)c3)on2)cc1C | 0.86 | 0.57 |
| COn1c(-c2ccccc2)nc2ncccc21 | 1.32 | 0.35 |

Remaining list, next part.
SMILES	KCNQ2 enhance	KCNQ2 enhance baseline
Cc1ccc(N(C(=O)c2ccc(S(=O)(=O)N(C)C)cc2)C2C=CS(=O)(=O)C2)cc1 (stereo unspecified)	0.41	-1.79
CCOC(=O)C1(CCCc2ccccc2)CCN(S(C)(=O)=O)CC1	0.2	-0.27
Cc1ccc(/C=N/NC(=O)c2nnn(-c3nonc3N)c2CNc2ccccc2)cc1	0.33	-0.11
O=C(O)C1CCCCC1C(=O)Nc1cccc(Cl)c1Cl (stereo unspecified)	0.01	0.76
COc1ccc(CNC(=O)CCNS(=O)(=O)c2cccc3nsnc23)cc1	1.14	-1.44
Cc1cc(C)nc(/N=C(\N)N(Cc2ccccc2)Cc2ccccc2)n1	0.2	-0.88
COc1ccccc1NC(=O)Nc1ccc(C(N)=O)cc1	0.28	-0.01
CSCc1ccc(C(=O)NCc2ccc(C)cc2)cc1	0.86	-0.02
CCc1nnc(NC(=O)c2ccc(-c3cccc(C(F)(F)F)c3)o2)s1	0.11	0.82
Cn1cnnc1SCC(=O)Nc1ccc(Br)cc1F	0.2	-0.52
CCN1CCN(c2nc(Nc3ccc(C)c(C)c3)nc(N)c2[N+](=O)[O-])CC1	0.54	0
CNC(=O)c1c(NC(=O)CCS(=O)(=O)c2ccc(F)cc2)sc(C)c1C	2.45	-0.03
CC(=O)Cn1cnc2scc(-c3ccc(C)c(C)c3)c2c1=O	1.33	-1.57
Nn1c(SCC(=O)Nc2ccc(F)c(F)c2)nnc1C1CCCCC1	1.77	-0.25
Cc1cccc(C)c1OCC1CNC(=O)O1 (stereo unspecified)	0.86	-0.41
CCOC(=O)/C(C#N)=C\c1ccc2c(c1)OCO2	0.65	-1.9
Cc1ccc(S(=O)(=O)NCc2nc3ccccc3[nH]2)cc1	0.56	-0.46
Cc1ccccc1N1CCN(C2=NC(=O)/C(=C/c3cn[nH]c3-c3ccccc3)S2)CC1	0.45	-0.65
CCN(CC)c1ccc(C(=O)Nn2cnc3ccccc3c2=O)cc1	0.14	-0.01
CCN1CCN(C(=O)c2ccccc2NS(=O)(=O)c2ccc(Cl)cc2)CC1	0.73	1.83
Cc1nn(C)cc1S(=O)(=O)N1CCCC(C(=O)O)C1 (stereo unspecified)	0.63	-0.01
COc1ccc(OCC(=O)Nc2ccc(N3CCN(Cc4ccccc4F)CC3)cc2)cc1	0.1	0.66
O=C(CSc1ccc2nnc(CCNS(=O)(=O)c3ccccc3)n2n1)Nc1nc2ccccc2s1	2.45	0.27
CN(C)S(=O)(=O)c1ccc(C(=O)Nc2cc(S(=O)(=O)Nc3ccccc3Cl)ccc2N2CCCCC2)cc1	0.72	0.91
Cc1noc(C(=O)N(C)c2ccccc2)c1Cl	1.01	0.67
CCN1CCN(c2cc(C)c3cc(NC(=O)CCC(=O)N4CCN(c5ccccc5)CC4)ccc3n2)CC1	1.63	1.89
Cc1ccc([N+](=O)[O-])cc1NC(=O)C(Sc1ccccc1)c1ccccc1 (stereo unspecified)	0.76	-0.25
COc1ccc(N2C(=O)N[C@@H](Cc3ccccc3)C2=O)cc1OC	0.6	0.07
O=C(N/N=C/c1ccc[nH]1)c1ccc(Cl)cc1	1.75	-0.3
CCN(CC(=O)NCc1cccs1)S(=O)(=O)c1ccccc1Cl	0.08	-0.15
CC1(C)CC(NS(=O)(=O)c2ccc3ccccc3c2)CC(C)(C)N1	0.65	-1.27
COc1ccccc1C(=O)NCC(=O)OCCCOC(=O)CNC(=O)c1ccccc1OC	2.04	0.12
CCn1c(=O)n(CCOC)c(=O)c2c3c(sc21)CCCC3	0.3	0.41
O=C(N1CCOCC1)N1CCN(S(=O)(=O)N2CCOCC2)CC1	0.31	-1.92
CSc1nc(C)nc2c1c(=O)n(C)c(=O)n2C	1.18	-0.42
C#CCOC(=O)C[N+](C)(C)C/C=C/c1ccccc1	0.26	-0.13
COCC(=O)N1CCCc2ccccc21	0.07	1.17
